Tg IFNy HTS: T. gondii growth inhibition with IFN-gamma, primary screen, cell-based; 69,000 tested, 3.8% active; Toxoplasma gondii growth in IFN-gamma-treated host cells; stronger effect = lower value; reference of the scale not given here; activity change, negative = inhibition, %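 (about 20 µM by stock and volumes)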;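 active = below -70%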;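 note: host cells are HeLa cells infected with Toxoplasma gondii; parasite growth read as luciferase light; one replicate is shown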
Active calls of the source: *; & = joins results of further samples.

SMILES | Tg IFNy HTS
Cc1ccc(C2(O)CCN(C(=O)Cc3c(C)n[nH]c3C)CC2)nc1 | -7
CN1C(=O)c2cc(NS(=O)(=O)c3cccc(F)c3)ccc2OC[C@H]2O[C@@H](CC(=O)NCCN3CCCCC3)CC[C@H]21 | 18
CCn1c(C)nc2cc(NS(=O)(=O)c3ccc4c(c3)C(NC(C)=O)CC4)ccc21 (stereo not given) | 8
Cn1c(=O)c(-c2nc(-c3ccc4c(c3)OCO4)no2)c(O)c2ccccc21 | 107
Fc1ccc2c(c1)/C(=N/NC(=S)NCC1CCCO1)CCS2 (stereo not given) | -47
COc1ccc(-c2cc(F)ccc2C(C)=O)cn1 | 149
CC1CCCCN1S(=O)(=O)c1ccc2c(c1)CCC(=O)N2CC(=O)Nc1ccc2c(c1)OCCO2 (stereo not given) | -12
CCn1nc(CC(=O)NCCn2nnn(-c3ccccc3)c2=O)c2ccccc2c1=O | -5
O=C(c1cccs1)N1CCCn2nnc(COCC3CC3)c2C1 | -41
CC(C)N1CCOCC2(CCCN(C(=O)c3ccn(C)n3)C2)C1 (stereo not given) | -3
OC1CCN(c2ccnc(N3CCC(Oc4cccnc4)CC3)n2)C1 (stereo not given) | 4
CN(C)C(=O)C1CCC2(CCN(S(=O)(=O)C3CC3)CC2)O1 (stereo not given) | 4
CCC1(C(O)(C#CCN2CCCCC2)c2ccccc2)CCCC1 (stereo not given) | -41
c1nc2c(n1CC1CC1)C(COCC1CCOCC1)CNC2 (stereo not given) | -38
O=C(O)CN1C[C@@H]2C[C@@H](C1)CN(C(=O)c1cccc(F)c1)C2 | -4

Pulled one by one from the list above (six):
SMILES | Tg IFNy HTS
c1nc2c(n1CC1CC1)C(COCC1CCOCC1)CNC2 (stereo not given) | -38
COc1ccc(-c2cc(F)ccc2C(C)=O)cn1 | 149
O=C(c1cccs1)N1CCCn2nnc(COCC3CC3)c2C1 | -41
CN1C(=O)c2cc(NS(=O)(=O)c3cccc(F)c3)ccc2OC[C@H]2O[C@@H](CC(=O)NCCN3CCCCC3)CC[C@H]21 | 18
Cn1c(=O)c(-c2nc(-c3ccc4c(c3)OCO4)no2)c(O)c2ccccc21 | 107
CCn1nc(CC(=O)NCCn2nnn(-c3ccccc3)c2=O)c2ccccc2c1=O | -5

New compounds follow
SMILES | Tg IFNy HTS
CCc1nc(OCC(=O)Nc2cccc(SC)c2)c2ccccc2n1 | -9
CNC(=O)c1ccc(-c2cc3ccccc3nc2OC)o1 | -4
COc1cccc(NC(=O)C[C@@H]2CC[C@H]3[C@@H](COc4ccc(NS(=O)(=O)c5cccc(F)c5)cc4C(=O)N3C)O2)c1 | -9
CC(C)NC(=O)N1CCc2onc(C(=O)N3CCCC3)c2C1 | -1
Cc1cccc(/C=C/c2ccccc2)n1 | 46
COC(=O)[C@@H]1C[C@@H](N(C)C)CN1C(=O)c1cc(C(C)C)oc1C | 4
O=C(CN1C(=O)CCc2cc(S(=O)(=O)N3CCCCC3)ccc21)Nc1ccc2c(c1)OCCO2 | -14
Cc1nccn1-c1ccc(CNC(=O)C(=O)N(C)c2ccccc2)cc1 | 7
Cc1cccc2c(C(=O)NCCCn3cccn3)cc(-c3cccnc3)nc12 | -17
CCN(C[C@H]1[C@H](c2ccccc2)[C@@H](CO)N1S(C)(=O)=O)C(=O)C1CCCC1 | -11
CC(c1nc2c(s1)CCCC2)n1cnc2sc3c(c2c1=O)CCNC3 (stereo not given) | -11
O=C(Nc1nnc(C2CCCCC2)s1)c1cn2cc(Cl)ccc2n1 | 12
O=C(NCC1Cc2cc(-c3cccnc3)cc(F)c2O1)C1CCCc2c1[nH]c1ccccc21 (stereo not given) | 8
Cc1cc(C(=O)N2CCCCC2)c2c(=O)n(CC(=O)c3c(C)n(C)c4ccccc34)c(=O)n(C)c2n1 | 7
COCC(NCC(=O)Nc1cnccn1)c1ccnn1C (stereo not given) | 20

Among those listed so far, these contain a furan ring, fused or not:
SMILES | Tg IFNy HTS
CNC(=O)c1ccc(-c2cc3ccccc3nc2OC)o1 | -4
COC(=O)[C@@H]1C[C@@H](N(C)C)CN1C(=O)c1cc(C(C)C)oc1C | 4

Another view of part of the listing above.
compound	Tg IFNy HTS
COC(=O)[C@@H]1C[C@@H](N(C)C)CN1C(=O)c1cc(C(C)C)oc1C	4
O=C(CN1C(=O)CCc2cc(S(=O)(=O)N3CCCCC3)ccc21)Nc1ccc2c(c1)OCCO2	-14
Cc1nccn1-c1ccc(CNC(=O)C(=O)N(C)c2ccccc2)cc1	7

Next section:
SMILES | Tg IFNy HTS
CC(C)C(=O)N1CCC2C(C[C@@H](CN(C)C)N2c2nccs2)C1 (stereo not given in full) | 30
COc1ccc2nc(NC(=O)CN3CCC(c4nc5ccccc5s4)CC3)sc2c1 | 10
Cc1c(CN(C)C(=O)c2cc(CN3CCOCC3)on2)[nH]c2ccccc12 | 11
CCSc1ccc(-c2sc(-c3ccc(OC)cc3)nc2C)nn1 | 182
CO[C@@H]1CN(C)C(=O)c2cc(NC(=O)c3nc4ccccc4s3)ccc2OC[C@H](C)NC[C@@H]1C | -30
COCCN1C(=O)CCC12CCC(NCc1nccs1)CC2 (stereo not given) | -16
Cn1ccnc1CNC1CC2(CCN(S(C)(=O)=O)CC2)c2ccccc21 (stereo not given) | 15
Fc1ccc(-c2nc(-c3ccccc3)oc2-c2ccc(F)cc2)cc1 | -1
O=C(CN1CCC(c2nc3ccccc3s2)CC1)N1CCN(C(=O)c2ccco2)CC1 | -34
Cc1ccc2nc3c(cc(C(=O)NCC4CCCO4)c(=N)n3CCCOC(C)C)c(=O)n2c1 (stereo not given) | -26
O=C(Nc1ccc(C(F)(F)F)cc1)N[C@@H]1C=C[C@@H](CC(=O)N2CCCCC2)O[C@@H]1CO | -67
O=S(=O)(c1cccc2nsnc12)N1CCC2(CCNCC2)C1 | -1
C[C@H]1CN([C@@H](C)CO)S(=O)(=O)c2ccc(-c3cccc(C#N)c3)cc2O[C@H]1CN(C)C(=O)c1ccccc1 | -42
Cc1cc(C(=O)N(C)Cc2ccccn2)ccc1NC(=O)c1ccco1 | 2
O=C1CCc2cc(S(=O)(=O)Nc3ccccc3)cc3c2N1CC3 | -24
c1ccc(-c2ccc3c(n2)CCc2ccccc2-3)cc1 | 225
CCc1ccc(-c2noc(-c3nnn(Cc4nc(-c5ccc(C)cc5)oc4C)c3C)n2)cc1 | -47
C[C@@H]1CC(=O)N[C@@H](c2ccccc2)C/C=C\C[C@H](c2ccccc2)NC1=O | 21
CN1CCCN(Cc2cnc3c(-c4ccccc4)cnn3c2)CC1 | 11
C[C@@H]1CN([C@@H](C)CO)C(=O)CCCn2nncc2CO[C@@H]1CN(C)Cc1cccc2c1OCCCO2 | -47
Cc1ccc(S(=O)(=O)NC(=O)Nc2cc(C)ccc2F)cc1 | -2
CC(C)=CCc1c(O)cc2oc(C)cc(=O)c2c1O | 2
Cc1cc(C)n(-c2ccc(-n3ccnc3-c3ccc(CO)o3)cc2)n1 | 6
CCOc1ccccc1NC(=O)CC(=O)N1CC=CC1C(C)C (stereo not given) | 2
CCn1c(C2CCN(c3nnnn3-c3ccccc3)CC2)n[nH]c1=O | 9
Cc1noc(C)c1NC(=O)N[C@H]1C=C[C@H](CC(=O)Nc2ccc(-c3ccccc3)cc2)O[C@@H]1CO | -38
O=C(CC(=O)C(F)(F)F)c1cccnc1 | -29
O=C(c1ccco1)N1C2CCC1CC(c1ccc(F)cc1)C2 (stereo not given) | -6
CCc1ccccc1NC(=O)Nc1ccc(-c2nc(-c3ccc(C)cc3)co2)cc1 | 66
Cc1c(Cl)cccc1NC(=O)C(=O)NCCc1csc(-c2ccc(C(F)(F)F)cc2)n1 | -12
COc1cccc(-c2n[nH]c3c2CN(C(=O)C2(C)CC(C)=NO2)CC3)c1 (stereo not given) | -7
Cc1noc(C)c1C1CCCN1Cc1ccc(-n2cncn2)cc1 (stereo not given) | 9
C[C@H](CO)N1C[C@H](C)[C@@H](CN(C)S(=O)(=O)c2cn(C)cn2)Oc2c(NC(=O)Nc3ccc(C(F)(F)F)cc3)cccc2C1=O | 21
Cc1ccc(C2(O)CCN(c3nc(C(N)=O)cs3)CC2)nc1 | 1
CN(Cc1cc(-c2ccncc2)no1)Cc1cn[nH]c1-c1cccc(F)c1 | 11
CCC(=O)N1CC(=O)N2[C@H](CO)[C@@H](c3ccc(C#CCC(C)C)cc3)[C@H]2C1 | -26
COc1ccc(NC2CCCN(C(=O)c3cnc(C(C)C)nc3C)C2)cc1 (stereo not given) | 8
CCOC(=O)C(NC(=O)Nc1ccccc1)(Nc1ccccc1OC)C(F)(F)F (stereo not given) | 39
Clc1ccc(CCNc2ncnc3nc[nH]c23)cc1 | 26
CC(C)N1CCNC(=O)C1CC(=O)N(C)Cc1csc(-c2ccccc2)n1 (stereo not given) | 8
COc1ccc(-c2nc(C)c(CCNC(=O)C(=O)Nc3ccc(C)c(Cl)c3)s2)cc1OC | -27
O=C(c1ccc(=O)[nH]c1)N1CCOc2c(O)cc(-c3nc4ccccc4s3)cc2C1 | -65
Cc1ccsc1CN(Cc1ncc[nH]1)C1CC1 | 6
Cc1ccc2c(c1)CCC21CCN(c2nncs2)CC1 | 33
O=C(CC1Nc2c3ccccc3nc(=S)n2C1=O)NCc1ccc(F)cc1 (stereo not given) | 7
CN(Cc1noc2c1CCCC2)C(=O)c1ccccc1C1CCNC1 (stereo not given) | 12
COc1ccc(-c2cc3c(=O)n(Cc4nc(-c5ccc(OC)cc5)oc4C)ccn3n2)cc1 | 17
COCCN1C(=O)CCC(C(=O)O)C1c1cccc(OC)c1 (stereo not given) | 29
O=C(CCC1C(=O)Nc2ccccc21)NCc1cc(Cl)c2c(c1)OCCCO2 (stereo not given) | 1
CC(C)Cc1n[nH]c(CSc2ccccc2)n1 | -58
COc1cccc(Cn2cc(NC(=O)C3(c4cc(C)cc(C)c4)CCOCC3)cn2)c1 | -4
CCCn1c(SCC(=O)N2CCCC2)nnc1C(C)C | -10
CCOc1ccc(-c2noc(-c3c(O)c4ccccc4[nH]c3=O)n2)cc1 | 40
N#Cc1ccc(C#Cc2ccccc2)cc1 | 47
Clc1ccc2c(c1)N=C(N1CCNCC1)c1ccccc1N2 | -58
CN(C)c1ncccc1CNC(=O)c1cnc2c(c1)nnn2C | 2
CCNc1cc(-c2ccc(C(=O)N3CCCC3)cc2)nc(N2CCOCC2)n1 | -34
Cc1nc(N2CCCC2)nc(N2CC(c3cccnc3)C2)c1C | -7
Cc1nc(-c2cccc(F)c2)sc1CCNC(=O)C(=O)Nc1ccccc1Cl | 12
CN(Cc1cc(-c2ccccc2)no1)Cc1nccn1C | 13
Remaining list, next part:
SMILES | Tg IFNy HTS
Cc1ccccc1NC(=O)CN1C(=O)CCc2cc(Br)ccc21 | 10
CCc1nc2sc(C)c(C)c2c(=O)n1N | 18
c1csc(-c2nccn2Cc2ccc3nsnc3c2)c1 | 2
Cn1nc(C(F)(F)F)cc1C(=O)N1CCCC(O)(CO)CC1 (stereo not given) | 7
CC1(C(=O)NCc2ccc(F)cc2F)CCN(C(=O)CC2CCCC2)CC1 | -12
COc1ccc(-c2ccc(C3[C@H]4CNC[C@@H]3N4S(=O)(=O)Cc3ccccc3)cc2)cc1 (stereo not given in full) | -13
COC[C@]12CCC[C@@H]1CN(S(=O)(=O)c1ccc(OC)c(F)c1)C2 | -20
O=C(O)CCC(=O)N1CC2CC1C[C@@H]2Oc1cccnc1 (stereo not given in full) | -22
Cc1nn(C)c(C)c1CCC(=O)N[C@@H]1CCC(=O)N[C@H]1C1CC=CCC1 (stereo not given in full) | 10
O=C(CN1CCN(S(=O)(=O)N2CCCC2)CC1)NCC1COc2ccccc2O1 (stereo not given) | 7
COCC1CN(C(=O)COc2ccccc2)Cc2c1cnn2C (stereo not given) | -10
CC(C)(C)c1ccc(C(=O)N2CCN(c3nc(-c4ccc(F)cc4)cs3)CC2)cc1 | -16
COc1ccc(C(C)=O)c(O)c1 | -3&9
O=S(=O)(c1ccccc1F)N1CCC2(CC1)Nc1ccc(Cl)cc1-n1cccc12 | -23
CCc1c(C)nc2cc(-c3cc(C)oc3C)nn2c1N1CCC(O)CC1 | -34
CC(=O)Nc1ccc(Cl)c(C(=O)NCCN2CCCOC2=O)c1 | 2
COc1ccccc1CN1CCC(C(=O)NCc2c(C)n[nH]c2C)CC1 | 13
CO[C@@H]1CC[C@H]2CCOc3ccc(C#N)cc3C(=O)N(C)[C@@H](C)C(=O)N(C)C[C@@H]1O2 | -21
NC(=O)CCn1cc(-c2[nH]cnc2-c2ccccc2)c2ccccc21 | -7
Cc1ccc(S(=O)(=O)NCCc2sc(-c3cccc(F)c3)nc2C)cc1 | 45
CC(=O)N1CCC[C@H]1C(=O)N(Cc1ccco1)Cc1cccs1 | 4
C[C@H](CO)N1C[C@H](C)[C@H](CN(C)C(=O)Nc2ccc3c(c2)OCCO3)OCc2cnnn2CCCC1=O | 185
Cc1nn(C)cc1NC(=O)C[C@@H]1CC[C@@H]2[C@@H](COc3ccc(NC(=O)c4cccc(F)c4)cc3C(=O)N2C)O1 | 7
COC1CC2(CCN(S(=O)(=O)C3CC3)CC2)c2ccc(C)cc21 (stereo not given) | -8
CC(=O)N1CCC(C(=O)NCc2ccccc2)(N(C(=O)c2ccc(C)cc2)c2ccc(C)c(C)c2)CC1 | -46
CCOCC(=O)N1CCO[C@]2(CCC[C@@H]2COCc2ccccn2)C1 | 4

Shown comma-delimited: part of the list above.
compound,Tg IFNy HTS
COc1ccccc1CN1CCC(C(=O)NCc2c(C)n[nH]c2C)CC1,13
CC(=O)N1CCC[C@H]1C(=O)N(Cc1ccco1)Cc1cccs1,4
C[C@H](CO)N1C[C@H](C)[C@H](CN(C)C(=O)Nc2ccc3c(c2)OCCO3)OCc2cnnn2CCCC1=O,185

Screening data: PubChem, Broad Institute

An excerpt (hit frequency here may not be typical).
